Screening data (PubChem BioAssay)
HNF4A DNA FP = change in binding of human HNF4 alpha to DNA | P41235 | HNF4a-FITC DNA binding, fluorescence polarization, 1 h | activity change, % at 10 µM | actives 0.3% (n = 360,000); in the data active = activity change above about 30%, passing the limit was not always enough;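 also: controls were the assay level and a saturating level of protein; the project sought stronger binding though the title names inhibitors; some compounds called inactive have numbers as strong as hits; positive values seem to mean higher polarization but the record does not say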
Target sequence (P41235 whole entry, looked up): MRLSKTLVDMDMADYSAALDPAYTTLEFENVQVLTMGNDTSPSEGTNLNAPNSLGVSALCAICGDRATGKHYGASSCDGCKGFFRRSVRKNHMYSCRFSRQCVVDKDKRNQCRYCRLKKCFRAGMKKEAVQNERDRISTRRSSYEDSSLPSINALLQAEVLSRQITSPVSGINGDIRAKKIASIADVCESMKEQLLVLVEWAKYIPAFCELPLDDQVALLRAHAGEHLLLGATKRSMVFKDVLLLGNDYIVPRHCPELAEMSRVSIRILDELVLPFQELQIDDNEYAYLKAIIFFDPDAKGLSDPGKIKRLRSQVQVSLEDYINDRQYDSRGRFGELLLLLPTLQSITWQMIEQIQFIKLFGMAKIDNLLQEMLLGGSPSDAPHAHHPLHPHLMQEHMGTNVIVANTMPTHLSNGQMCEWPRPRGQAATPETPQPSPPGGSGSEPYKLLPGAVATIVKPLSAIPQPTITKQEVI
Calb FLC = affects C. albicans growth with fluconazole; C. albicans CaCi-2 (fluconazole-resistant clinical isolate) + fluconazole, Alamar Blue growth, 48 h; growth inhibition, % (concentration not given with the values); actives 0.57% (n = 300,000); AID 1979;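 active = most replicates above 75%; inconclusive = exactly half above 75%; inactive = most below 75%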;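 also: all wells also contain fluconazole at 8 µg/ml as a sub-toxic cotreatment; 0% = median of DMSO wells and 100% = median of geldanamycin control wells; wells of about 8 µL received 7.5 nL stock; the first replicate is given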
B2AR ag = human beta-2 adrenergic receptor agonism by FAP; P07550; Am2.2-beta2AR cells, FAP receptor internalization, flow cytometry; reference of the scale not given here; response, % (test concentration not listed); actives 0.43% (n = 340,000);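 active = response above a set limit, near 3 SD of response in nonfluorescent compounds, cut at about 42% in these data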;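 also: stock transfer was 100 nL into about 11 µL; a reference agonist was the positive control; negative values mostly stem from fluorescent compounds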
Target sequence (P07550 whole entry, looked up): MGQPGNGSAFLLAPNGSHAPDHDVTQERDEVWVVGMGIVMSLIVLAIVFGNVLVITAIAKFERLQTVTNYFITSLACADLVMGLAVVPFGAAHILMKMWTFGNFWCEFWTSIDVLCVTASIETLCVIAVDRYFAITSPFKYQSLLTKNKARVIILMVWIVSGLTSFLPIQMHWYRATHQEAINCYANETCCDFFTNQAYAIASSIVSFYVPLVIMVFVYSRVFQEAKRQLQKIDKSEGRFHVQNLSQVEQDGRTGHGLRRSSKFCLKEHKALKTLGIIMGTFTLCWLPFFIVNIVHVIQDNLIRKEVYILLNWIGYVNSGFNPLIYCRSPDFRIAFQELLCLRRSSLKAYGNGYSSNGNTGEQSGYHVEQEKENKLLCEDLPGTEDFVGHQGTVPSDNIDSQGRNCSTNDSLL
Vif A3G = inhibitors of Vif binding to APOBEC3G peptide, primary screen, biochemical, TR-FRET, GST-Vif 1-94, biotin-A3G peptide, dose response retest (AID 1117319). actives 0.57% (n = 260,000). inhibition, %, or IC50 in µM where a hit was titrated. TR-FRET GST-Vif / biotin-A3G peptide binding; higher % means a stronger effect; test concentration not given here; strong numbers were not always called active;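 active = above the screen mean plus three standard deviations and confirmed in dose response; inconclusive = results disagree or hit not tested in dose response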;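 also: Vif residues 1-94 fused to GST binding biotinylated APOBEC3G peptide 110-148; 0% = full assay without inhibitor and 100% = GST in place of GST-Vif; retest series ran down from 100 µM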
RanGTP-Imp inh = inhibitors of RanGTP-importin-beta interaction, primary screen, biochemical, FRET, CFP-Ran, YFP-importin-beta, homogeneous; actives 1.1% (n = 300,000); cell-free CFP-Ran/YFP-importin-beta FRET ratio; inhibition, % (no concentration beside the values);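 active = most replicates above 15%; inconclusive = exactly half above 15%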;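 also: 0% = DMSO wells and 100% = Ran loaded with GDP instead of GTP; wells of about 40 µL received 100 nL stock; the first replicate is given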
LANA-H2B inh = blocks KSHV LANA binding to histone H2A/H2B. Q9QR71. inhibition, % (test concentration not listed). actives 0.6% (n = 320,000). cell-free LANA-H2A/H2B peptide, fluorescence polarization; in the data active = inhibition mostly above about 10%, no sharp cut-off; inactive = mostly below about 6.7%;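 also: stock transfer was 7.5 nL into about 10 µL; 0% = median of vehicle wells and 100% = median of positive control wells; one replicate is shown; the record names a cut of 25% in any replicate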
ALR inh = inhibitors of human sulfhydryl oxidase ALR; actives 3.8% (n = 290,000); inhibition, % (concentration not given with the values); purified ALR, DTT oxidation, H2O2 HRP-luminol luminescence; P55789;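 active = mean and each replicate at 75% or more; inconclusive = only one of the two met; inactive = neither met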;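 also: stock transfer was 7.5 nL into about 7.5 µL; 0% = neutral wells and 100% = wells with inactivated enzyme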
Target sequence (P55789 whole entry, looked up): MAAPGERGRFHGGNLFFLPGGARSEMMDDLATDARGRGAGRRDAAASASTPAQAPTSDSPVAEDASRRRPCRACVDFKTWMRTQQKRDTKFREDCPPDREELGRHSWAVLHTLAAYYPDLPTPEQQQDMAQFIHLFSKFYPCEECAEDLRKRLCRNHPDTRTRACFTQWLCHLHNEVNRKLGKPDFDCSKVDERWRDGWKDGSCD
An asterisk follows results filed as active.

Screening CC(C)OC(=O)/C(=C\c1ccccc1)NC(=O)c1ccccc1 returned HNF4A DNA FP 2.5, Calb FLC 4, B2AR ag -4, Vif A3G 1%, RanGTP-Imp inh 2.6, LANA-H2B inh -5.1 and ALR inh 5.
For CCn1ccnc1CN(C)Cc1nc(-c2ccc(C(=O)OC)cc2)no1 the results were HNF4A DNA FP 1.0, Calb FLC -5, B2AR ag 3, Vif A3G 1%, RanGTP-Imp inh -2.7, LANA-H2B inh 9.3 and ALR inh 2.
CCCCCCN1Cc2ccccc2C1 was read as HNF4A DNA FP 0.1, Calb FLC -3, B2AR ag 5, Vif A3G 6%, RanGTP-Imp inh -0.6 and LANA-H2B inh -4.1.
`O=C(Nc1cccc(F)c1)c1ccc(S(=O)(=O)N2CCCCC2)cc1` gave HNF4A DNA FP 0.3, Calb FLC 0, B2AR ag 4, RanGTP-Imp inh -0.7, LANA-H2B inh -3.4 and ALR inh -18.
CC(=O)c1ccc(NC(=O)CSc2nccn2CCc2ccccc2)cc1 was read as HNF4A DNA FP 3.1, Calb FLC 4, B2AR ag -1, Vif A3G 4%, RanGTP-Imp inh 1.7, LANA-H2B inh -2.8 and ALR inh -9.
`CC(C)Cn1c(N)c(C(=O)COC(=O)[C@@H]2CCCN2C(=O)c2cccs2)c(=O)n(C)c1=O` gave HNF4A DNA FP 7.2, Calb FLC -9, B2AR ag -1, Vif A3G -12%, RanGTP-Imp inh 0.2, LANA-H2B inh 0.2 and ALR inh -1.
For CCOc1ccc(CCNC(=O)CSCc2ccc(C)cc2)cc1OCC the results were HNF4A DNA FP 1.5, Calb FLC 8, B2AR ag -7, Vif A3G 5%, RanGTP-Imp inh 7.5, LANA-H2B inh -0.9 and ALR inh -1.
CC(=O)C[C@@H](O)CC(=O)[C@@H]1OC(=O)CCCCCCCc2ccccc21 was read as HNF4A DNA FP -6.7, B2AR ag -4, LANA-H2B inh -3.3 and ALR inh 2.
Screening COc1ccc(NS(=O)(=O)c2ccc(NC(=O)Cc3cccs3)cc2)cc1 returned HNF4A DNA FP -1.7, Calb FLC -4, B2AR ag -3, Vif A3G inconclusive, RanGTP-Imp inh -3.1, LANA-H2B inh 0.4 and ALR inh 4.
Screening CCc1ccc(N(CC(=O)NC(C)C)C(=O)CCC(=O)Nc2ccccn2)cc1 returned HNF4A DNA FP 0.8, Calb FLC 2, B2AR ag -2, Vif A3G 2%, RanGTP-Imp inh 5.6, LANA-H2B inh 1.1 and ALR inh 1.
O=c1oc2c(-c3cccc(F)c3)cc(O)cc2s1 was read as HNF4A DNA FP 1.6, Calb FLC 22, B2AR ag 3, Vif A3G -1%, RanGTP-Imp inh -1.2, LANA-H2B inh 1.3 and ALR inh 41.
Screening Cn1c(N)c(C(=O)COC(=O)CNC(=O)c2ccccc2F)c(=O)n(C)c1=O returned HNF4A DNA FP -1.6, B2AR ag 10, Vif A3G -4%, LANA-H2B inh 0.9 and ALR inh 0.
`CCc1nnc(NC(=O)c2nn(-c3ccccc3)nc2C)s1` gave HNF4A DNA FP 2.5, Calb FLC 40, B2AR ag -8, Vif A3G -2%, RanGTP-Imp inh -3.0, LANA-H2B inh -2.7 and ALR inh 24.
Screening COc1ccc(C)cc1S(=O)(=O)Nc1ccccc1 returned HNF4A DNA FP -3.7, Calb FLC -34, B2AR ag 8, Vif A3G 12%, RanGTP-Imp inh 6.9, LANA-H2B inh -1.6 and ALR inh 17.
Screening COc1ccc(COc2cc(-c3cccc(OC)c3)nc3ccc(NC(=O)c4ccc(Cl)cc4)cc23)cc1 returned HNF4A DNA FP 4.1, Calb FLC 22, B2AR ag -9, Vif A3G -12%, RanGTP-Imp inh 2.9 and LANA-H2B inh 4.0.
For CC1(C)Cc2c(sc3nnn(Cc4ccc(Cl)cc4)c(=O)c23)CO1 the results were HNF4A DNA FP 1.1, B2AR ag -4 and LANA-H2B inh 2.2.
Screening C=CCS(=O)(=O)N1CCCC(C(=O)c2cccc(Cl)c2)C1 (centres undefined) returned HNF4A DNA FP -2.0, Calb FLC -5, B2AR ag 12, Vif A3G 3%, RanGTP-Imp inh -1.1, LANA-H2B inh 3.2 and ALR inh 5.
`O=C(CSCc1ccc(C(=O)O)cc1)Nc1ccccc1` gave HNF4A DNA FP 0.6, Calb FLC 7, B2AR ag -1, Vif A3G -4%, RanGTP-Imp inh -3.4, LANA-H2B inh 1.3 and ALR inh -8.
Screening OC(CN1CCN(Cc2ccccc2)CC1)c1ccccc1 (centres undefined) returned HNF4A DNA FP 1.4, Calb FLC -1, B2AR ag -2, Vif A3G 10%, RanGTP-Imp inh 0.5, LANA-H2B inh -3.4 and ALR inh 3.
For O=C(c1cc2ccccc2o1)N1CCN(S(=O)(=O)/C=C/c2ccccc2)CC1 the results were HNF4A DNA FP 1.2, Calb FLC -17, B2AR ag -10, Vif A3G 8%, RanGTP-Imp inh 2.1, LANA-H2B inh -2.5 and ALR inh 0.

Random excerpt: five entries already listed, in no set order.
Screening COc1ccc(C)cc1S(=O)(=O)Nc1ccccc1 returned HNF4A DNA FP -3.7, Calb FLC -34, B2AR ag 8, Vif A3G 12%, RanGTP-Imp inh 6.9, LANA-H2B inh -1.6 and ALR inh 17.
CCCCCCN1Cc2ccccc2C1 was read as HNF4A DNA FP 0.1, Calb FLC -3, B2AR ag 5, Vif A3G 6%, RanGTP-Imp inh -0.6 and LANA-H2B inh -4.1.
O=c1oc2c(-c3cccc(F)c3)cc(O)cc2s1 was read as HNF4A DNA FP 1.6, Calb FLC 22, B2AR ag 3, Vif A3G -1%, RanGTP-Imp inh -1.2, LANA-H2B inh 1.3 and ALR inh 41.
For CCOc1ccc(CCNC(=O)CSCc2ccc(C)cc2)cc1OCC the results were HNF4A DNA FP 1.5, Calb FLC 8, B2AR ag -7, Vif A3G 5%, RanGTP-Imp inh 7.5, LANA-H2B inh -0.9 and ALR inh -1.
Screening C=CCS(=O)(=O)N1CCCC(C(=O)c2cccc(Cl)c2)C1 (centres undefined) returned HNF4A DNA FP -2.0, Calb FLC -5, B2AR ag 12, Vif A3G 3%, RanGTP-Imp inh -1.1, LANA-H2B inh 3.2 and ALR inh 5.

Next entries follow:
For O=C(COC(=O)c1cc(=O)c2ccccc2o1)Nc1ccccc1F the results were HNF4A DNA FP 2.9, B2AR ag -5, Vif A3G -7%, LANA-H2B inh 8.0 and ALR inh -1.
OC(C[n+]1ccccc1)c1ccccc1 (centres undefined) was read as HNF4A DNA FP 0.3, Calb FLC 1, B2AR ag -2, RanGTP-Imp inh inconclusive, LANA-H2B inh 8.8 and ALR inh -24.
O=C(Nc1cccc(Cl)c1)C1CCCN(S(=O)(=O)c2ccc(F)cc2)C1 (centres undefined) was read as HNF4A DNA FP -2.0, Calb FLC -12, B2AR ag -3, Vif A3G 3% and RanGTP-Imp inh -0.3.
O=C(/C=C/c1cc2c(cc1Br)OCO2)NCc1ccc(Cl)cc1 was read as HNF4A DNA FP -2.3, Calb FLC 3, B2AR ag 6, Vif A3G -1%, RanGTP-Imp inh -4.0, LANA-H2B inh 4.7 and ALR inh -5.
`Cc1cc(C)cc(OCC(=O)NNC(=O)c2cc3ccccc3oc2=O)c1` gave HNF4A DNA FP -0.9, B2AR ag -3 and Vif A3G 0%.
Screening O=C(CN(CCc1ccccc1)C(=O)Cn1nnc(-c2cccs2)n1)NCc1ccco1 returned HNF4A DNA FP -3.0, Calb FLC 9, B2AR ag 2, Vif A3G 16%, RanGTP-Imp inh 1.0, LANA-H2B inh 4.2 and ALR inh 0.
For COc1cccc(NC(=O)CCS(=O)(=O)c2cccs2)c1 the results were HNF4A DNA FP 1.5, Calb FLC 5, B2AR ag 0, Vif A3G 8%, RanGTP-Imp inh 2.5, LANA-H2B inh -5.6 and ALR inh -4.
CCOC(=O)c1c(-c2cccc([N+](=O)[O-])c2)csc1NC(=O)C1CC1 was read as HNF4A DNA FP -0.2, Calb FLC 4, B2AR ag -8, Vif A3G 18%, RanGTP-Imp inh 6.4, LANA-H2B inh -6.0 and ALR inh -8.
`O=c1c2ccccc2n(CC(O)CN2CCOCC2)c2ccccc12` (centres undefined) gave HNF4A DNA FP -2.0, Calb FLC -22, B2AR ag -9, Vif A3G -8%, RanGTP-Imp inh 79*, LANA-H2B inh -2.0 and ALR inh 2.
Cc1nc(/N=C(\N)NC(=O)NC2CCCCC2)nc2ccccc12 was read as HNF4A DNA FP -6.0, Calb FLC -9, B2AR ag 1, Vif A3G -2%, RanGTP-Imp inh -1.1, LANA-H2B inh 2.1 and ALR inh 27.
Screening CCOC(=O)C1CCCN(C(=O)c2ccc3[nH]c4c(c3c2)CC(C)CC4)C1 (centres undefined) returned HNF4A DNA FP -0.8, B2AR ag 6, Vif A3G 1%, LANA-H2B inh 0.4 and ALR inh 3.
For COc1ccc(CC(C)N2CCN(c3ccccc3)CC2)cc1OC (centres undefined) the results were HNF4A DNA FP 2.4, Calb FLC -19, B2AR ag 1, Vif A3G 2%, RanGTP-Imp inh -0.2, LANA-H2B inh -4.6 and ALR inh 60.
`N#Cc1ccsc1NC(=O)C1CC(=O)N(Cc2ccccc2)C1` (centres undefined) gave HNF4A DNA FP 2.7, Calb FLC 3, B2AR ag 6, Vif A3G -3%, RanGTP-Imp inh -0.2, LANA-H2B inh 2.6 and ALR inh 7.
`CC(C)C(NC(=O)c1c(F)cccc1F)C(=O)NNC(=O)c1ccccc1` (centres undefined) gave HNF4A DNA FP -0.8, B2AR ag 2, LANA-H2B inh -0.8 and ALR inh -8.
`COc1ccccc1-n1cnnc1SCC(=O)N1CCN(S(=O)(=O)c2ccccc2)CC1` gave HNF4A DNA FP -1.1, Calb FLC 7, B2AR ag -1, Vif A3G -3%, RanGTP-Imp inh 0.2, LANA-H2B inh 1.6 and ALR inh -11.
Screening C=CCn1c(SCC(=O)NC(C)(C)C)nnc1-c1ccccc1O returned HNF4A DNA FP 2.3, Calb FLC 13, B2AR ag -5, Vif A3G -2%, RanGTP-Imp inh -0.3, LANA-H2B inh -4.4 and ALR inh 0.
`Nc1nc(NCc2ccco2)nc(NC2CCCCC2)c1[N+](=O)[O-]` gave HNF4A DNA FP 0.6, Calb FLC 6, B2AR ag -6, RanGTP-Imp inh 4.6, LANA-H2B inh 5.1 and ALR inh 17.
`O=C(NCc1ccccc1)c1nc2ccccc2s1` gave HNF4A DNA FP -1.0, Calb FLC -28, B2AR ag -2, RanGTP-Imp inh 3.5 and LANA-H2B inh 5.9.
Cc1nnc(SCC(=O)NC(=O)NC(C)(C)C)s1 was read as HNF4A DNA FP 0.1, Calb FLC -4, B2AR ag 3, Vif A3G 21%, RanGTP-Imp inh -0.8, LANA-H2B inh 0.7 and ALR inh -25.
For CNC(=O)c1[nH]cnc1C(=O)Nc1ccc(OC)cc1 the results were HNF4A DNA FP 1.6, Calb FLC -9, B2AR ag 2, Vif A3G 17%, RanGTP-Imp inh 5.0, LANA-H2B inh 0.5 and ALR inh 8.
`CC(C)Oc1ccc(CCc2nnc(SC(C)C(=O)O)n2-c2ccccc2)cc1` (centres undefined) gave HNF4A DNA FP 1.3, Calb FLC -3, B2AR ag 2, Vif A3G 9%, RanGTP-Imp inh inconclusive, LANA-H2B inh -1.3 and ALR inh -2.
Screening Cc1ccc(Nc2nc3ccccc3n3cnnc23)cc1Cl returned HNF4A DNA FP 8.2, Calb FLC 12, B2AR ag -13, Vif A3G 1%, RanGTP-Imp inh -2.2, LANA-H2B inh -7.5 and ALR inh -8.
`O=C(COc1ccc(Cl)cc1)Nc1ccc2[nH]ncc2c1` gave HNF4A DNA FP 2.1, Calb FLC 9, B2AR ag 1, RanGTP-Imp inh -0.8, LANA-H2B inh -5.8 and ALR inh -8.
